CBX7 AlphaScr: inhibitors of human CBX7 binding to H3K27me3 peptide; normalised signal (fraction of DMSO) (concentration not given with the values); 66,000 tested, 1.1% active; AlphaScreen His6-CBX7 / biotin-H3K27me3 peptide binding; stronger effect = lower value; O95931; in the data active = normalised signal below about 0.5;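 note: 100 nL library stock added to about 20 µL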
Target sequence (O95931 whole entry, looked up): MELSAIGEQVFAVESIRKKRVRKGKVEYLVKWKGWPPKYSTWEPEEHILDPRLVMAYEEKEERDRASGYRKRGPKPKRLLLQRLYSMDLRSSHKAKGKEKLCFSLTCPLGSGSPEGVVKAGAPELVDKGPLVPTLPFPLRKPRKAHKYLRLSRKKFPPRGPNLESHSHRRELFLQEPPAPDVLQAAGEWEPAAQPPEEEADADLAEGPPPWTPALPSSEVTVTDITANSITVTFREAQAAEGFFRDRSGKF
CBX7 AlphaScr z-score: second read-out of CBX7 AlphaScr, no call of its own (marks repeat the call); z-score; measured here: z-score of CBX7 signal; some inactives read as strong as hits; reference of the scale not given here;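 same signal on another scale; lower means less binding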
Numbers without * were called inactive; & = joins results of further samples.

SMILES | CBX7 AlphaScr | CBX7 AlphaScr z-score
COc1ccc(NC(=O)CSc2nc3nc(C)c(Cc4ccccc4Cl)c(C)n3n2)cc1OC | 0.79 | -2.27
Cc1csc(NC2c3ccccc3C(=O)N2Cc2ccccc2)n1 (configuration not stated) | 0.771 | -6.18
COc1ccc(-c2nnc(NC(=O)c3ccc(OC)c(OC)c3)o2)cc1 | 0.0863* | -15.8*
CCN1CCN(Cc2c(C)[nH]c3ccccc3c2=O)CC1 | 1.14 | 2.32
COc1ccc(CNC(=O)C2(S(=O)(=O)c3ccc(C)cc3)CC2)cc1 | 1.03 | 0.45
CC(=O)OCC(=O)C1(O)CCC2C3CCC4=CC(=O)CCC4(C)C3C(O)CC21C (configuration not stated) | 0.992 | -0.2
NC(=O)CN1C(=O)C(O)(CC(=O)c2ccc3c(c2)CCCC3)c2ccccc21 (configuration not stated) | 0.917 | -0.0936
CCc1ccccc1NC(=O)c1cc(S(=O)(=O)N2CCC(C)CC2)ccc1F | 1.14 | 1.03
O=C(O)C1CCN(c2nc3ccccc3n2Cc2ccccc2F)CC1 | 1.08 | 2.11
CCN(CC)CCCNC(=O)c1cn(C2CCCCC2)c(=O)c2c1c1ccccc1n2C | 1.02 | 0.603
Cc1nc(-c2cccc(NS(=O)(=O)c3ccc(Br)cc3)c2)cs1 | 1.08&0.922 | 1.72&-1.95
Cc1cccc(OCc2nc3ccccc3n2C)c1 | 0.978 | -0.791
Cc1c(C(=O)Nc2ccc(Br)cc2F)oc2ccc(S(=O)(=O)N3CCCCC3)cc12 | 1.02 | 1.11
COc1cc2c(c(OC)c1)C(c1ccncc1)CC(=O)N2 (configuration not stated) | 0.983 | -0.214
CCc1cccc(NC2c3ccccc3C(=O)N2Cc2ccccc2)c1 (configuration not stated) | 0.859 | -2.01
Cc1cc2ccccc2c(=O)n1CC(=O)NCC(=O)N1CCN(c2cccc(Cl)c2)CC1 | 0.969 | -1.39
CCCC1C2c3ccccc3C(c3ccccc32)C1C(=O)Nc1ccccc1OC (configuration not stated) | 0.707 | -1.16
COc1cccc(-c2cc(C(F)(F)F)nc(N3CCOCC3)n2)c1 | 1.39 | 18.5
N#Cc1cc(-c2ccccc2)nc(N2CCN(c3ccccc3)CC2)n1 | 1.4 | 3.89
Cc1cc(OCC(=O)Nc2ccc(Cl)cn2)cc(C)c1Cl | 1.02 | 0.591
COc1cc(NC(=O)C2CCN(S(=O)(=O)c3cnc[nH]3)CC2)cc(OC)c1 | 0.857 | -2.35
Cc1ccc(-c2nc(CS(=O)(=O)CC(=O)Nc3ccc(F)cc3C)c(C)o2)cc1 | 0.997 | -0.00557
CC(C)c1cc(C(=O)Nc2ccc(Br)cc2)no1 | 1.09 | 0.935
O=C1c2ccccc2C(=O)N1c1ncc(Cc2ccc(Br)cc2)s1 | 0.951 | -0.231
COc1ccc(C2=NOC(C(=O)N3CCN(C(c4ccccc4)c4ccccc4)CC3)C2)cc1 (configuration not stated) | 0.899 | -1.35
SMILES | CBX7 AlphaScr | CBX7 AlphaScr z-score
O=C(Nc1cccc(-c2nc3ncccc3o2)c1)c1ccccc1F | 1.19 | 1.92
Cc1cc(Nc2ccccc2Cl)nc(-c2ccccc2O)n1 | 1.18 | 3.62
C=CCNC(=O)c1cc(-c2ccc3c(c2)OCO3)on1 | 1.04 | 0.348
CCOc1ccc(N2C(=O)CC(N(C)CCc3ccc(OC)c(OC)c3)C2=O)cc1 (configuration not stated) | 1.23 | 3.56
CCOc1ccc(NC(=O)N2CCN(c3nc4ccccc4s3)CC2)cc1 | 1.05 | 2.29
O=C1CCc2cc(S(=O)(=O)NC(Cc3ccccc3)C(=O)NCCCc3ccccc3)ccc2N1 (configuration not stated) | 1.01 | 0.0538
O=C(Nc1nccs1)c1ccc2c(c1)C(=O)N(c1ccc(Cl)cc1)C2=O | 1.12 | 1.89
Cc1cc(C(=O)Nc2ccccc2Cl)n(-c2ccccc2)n1 | 1.03 | 0.289
COc1ccccc1-n1nc(C(=O)Nc2ccc(C)c(F)c2)c2ccccc2c1=O | 1.02 | 0.521
CCC(=O)N1CCc2cc(S(=O)(=O)Nc3ccc(CC)cc3)ccc21 | 1.03 | 0.108
CCC1=Nc2cc(C(=O)NCCc3ccc(C)cc3)ccc2Sc2ccc(C)cc21 | 0.977 | -0.607
Cc1ccc(OCCSc2nc3ccc(Br)cc3[nH]2)cc1 | 1.14 | 0.928
COc1ccc(CC(=O)Nc2ccc(S(=O)(=O)Nc3nccc(C)n3)cc2)cc1 | 1.01 | 0.157
N#Cc1c(NC(=O)c2ccccc2Cl)sc2c1CCCC2 | 1.06 | 0.565
O=C(CC1Nc2ccccc2NC1=O)NCCc1ccc(Cl)cc1 (configuration not stated) | 0.976 | -0.194
COc1cccc(CNC(=O)C2CCN(S(C)(=O)=O)CC2)c1 | 1.03 | 1.66
CCOC(=O)c1cc(-c2ccc(OC)cc2)n(CCC(=O)Nc2ccccc2CC)c1C | 1.01 | 0.341
Cc1ccn2c(NC3CCCC3)c(-c3cccs3)nc2c1 | 0.972 | -0.0374
CCOC(=O)N1CCC(Nc2c(NC3CCCCC3C)c(=O)c2=O)CC1 (configuration not stated) | 1.15 | 2.49
Cc1ccc(S(=O)(=O)c2nc(-c3cccs3)oc2SCc2ccc(F)cc2)cc1 | 1.01 | 0.0165
CCCCc1nn(-c2cc(Cl)ccc2OC)c2c1C(=O)CC(c1ccccc1)C2 (configuration not stated) | 1.14 | 1.38
Cc1onc(-c2ccccc2)c1C(=O)N1CCN(c2ccccc2F)CC1 | 0.943 | -0.0668
CCOc1ccc(C(=O)Nc2ccc(-c3nc4cc(Cl)ccc4o3)cc2)cc1 | 0.861 | -0.562
Cc1ccc(-c2ccc(=O)n(CC(=O)NC3CCCCCC3)n2)cc1 | 1 | 0.0852
O=C(CC(C(=O)N1CCc2ccccc21)n1ccnc1)NC1CC1 (configuration not stated) | 1.02 | 0.447

By substructure, those above containing two or more sulfur atoms (2)
SMILES | CBX7 AlphaScr | CBX7 AlphaScr z-score
Cc1nc(-c2cccc(NS(=O)(=O)c3ccc(Br)cc3)c2)cs1 | 1.08&0.922 | 1.72&-1.95
Cc1ccc(S(=O)(=O)c2nc(-c3cccs3)oc2SCc2ccc(F)cc2)cc1 | 1.01 | 0.0165

Arranged by the number under CBX7 AlphaScr z-score (lowest first): 3 from the list above
compound	CBX7 AlphaScr z-score
Cc1ccn2c(NC3CCCC3)c(-c3cccs3)nc2c1	-0.0374
Cc1cc(C(=O)Nc2ccccc2Cl)n(-c2ccccc2)n1	0.289
O=C(Nc1nccs1)c1ccc2c(c1)C(=O)N(c1ccc(Cl)cc1)C2=O	1.89

(further entries)
SMILES | CBX7 AlphaScr | CBX7 AlphaScr z-score
CC(=O)NC(CCS(C)(=O)=O)C(=O)Nc1ccccc1F (configuration not stated) | 1.04 | 1.82
COc1ccccc1CNC(=O)C1CCN(C(=O)N(C)C)CC1 | 1.12 | 1.82
CC1CCCCN1S(=O)(=O)c1ccc2[nH]c(=O)cc(C(=O)NCc3ccccc3)c2c1 (configuration not stated) | 1.02 | 1.17
CCOc1ccc2nc(N3CCCC(C(=O)NCCC4=CCCCC4)C3)sc2c1 (configuration not stated) | 0.98 | -0.544
Cn1c(=O)c2c(-c3ccccc3)n(Cc3ccc(Cl)cc3)cc2n(C)c1=O | 0.862 | -1.58
COC(=O)c1ccccc1NC(=O)C1CC(c2cccc(OC)c2)=NO1 (configuration not stated) | 0.953 | -0.629
O=C(NCc1ccc(F)cc1)c1cc2n(n1)C(C(F)(F)F)CC(C1CC1)N2 (configuration not stated) | 0.991 | -0.0859
O=C(O)c1ccc2c(c1)C(=O)N(c1cccc(Cl)c1Cl)C2=O | 1.16 | 1.72
COc1ccc(C2=NOC(C(=O)N3CCCc4ccccc43)C2)cc1 (configuration not stated) | 1 | 0.0153
COc1cccc(CNC(=O)C2CC(=O)N(C3CCCCC3)C2)c1 (configuration not stated) | 1.05 | 0.0986
CCCCCCCC1C(=O)CC(c2ccccc2O)NC1c1ccccc1O (configuration not stated) | 0.948 | -1.45
CCOc1ccc(CCNC(=O)CCN2C(=O)COc3ccccc32)cc1OCC | 1.04 | 1.24
CCC1=Nc2cc(C(=O)NCCN3CCCC3)ccc2Sc2ccccc21 | 1.03 | 0.0591
COc1cc2c(C(=O)NCCCOC(C)C)cn(CC(C)C)c(=O)c2cc1OC | 1.08 | 3.45
Cc1ccc(C2CC(C(F)(F)F)n3nc(C(=O)Nc4ccc5c(c4)OCO5)cc3N2)cc1 (configuration not stated) | 1.14 | 2.67
CCOc1ccc(NC(=O)N2CCCC2c2ccc(OC)c(OC)c2)cc1 (configuration not stated) | 0.909 | -0.572
CCC(=O)N1CCc2cc(S(=O)(=O)NCCN3CCN(c4ccccc4)CC3)ccc21 | 0.888 | -2.18
O=C(CC1(O)C(=O)Nc2ccccc21)c1cccc(Br)c1 (configuration not stated) | 1.06 | 0.778
Cc1ccc(NC(=O)Cn2cnc3sc(C(=O)NC4CCCCCC4)c(C)c3c2=O)cc1Cl | 0.971 | -0.284
O=C(NCc1ccccc1)c1ccc2c(c1)N(Cc1ccc(Cl)cc1)C(=O)c1ccccc1S2(=O)=O | 1.05 | 0.523
Cc1csc(NC(=O)C2CCN(S(=O)(=O)c3ccc4c(c3)CCC(=O)N4)CC2)n1 | 0.993 | -0.119
CCOC(=O)c1cc(-c2ccc(OC)cc2)n(CCC(=O)Nc2cccc(C)c2)c1C | 0.876 | -3.32
CCOC(=O)c1cnc2cc(Cl)c(OC)cc2c1Nc1ccc(F)cc1F | 1.02 | 0.0198
Cc1cc(C)n2c(Nc3ccc4c(c3)OCCO4)c(-c3ccsc3)nc2n1 | 0.911 | -2.4
Cc1nn(CCCC(=O)NC2CCCC2)c2ccc(F)cc12 | 1.04 | 1.04

3 structures out of the list, ordered by length of the SMILES, ascending:
SMILES | CBX7 AlphaScr | CBX7 AlphaScr z-score
Cc1cc(C)n2c(Nc3ccc4c(c3)OCCO4)c(-c3ccsc3)nc2n1 | 0.911 | -2.4
CCOC(=O)c1cc(-c2ccc(OC)cc2)n(CCC(=O)Nc2cccc(C)c2)c1C | 0.876 | -3.32
O=C(NCc1ccccc1)c1ccc2c(c1)N(Cc1ccc(Cl)cc1)C(=O)c1ccccc1S2(=O)=O | 1.05 | 0.523

The list goes on.
SMILES | CBX7 AlphaScr | CBX7 AlphaScr z-score
CCN1C(=O)c2ccccc2Sc2ccc(C(=O)NCc3cccs3)cc21 | 1.11 | 3.31
CCN1CCN(CCCNC(=O)C2CCCN(c3nn4c(=O)cc(C)nc4s3)C2)CC1 (configuration not stated) | 0.655 | -2.63
O=C(NCc1cccs1)C1C2C=CC3(CN(CCCN4CCOCC4)C(=O)C13)O2 (configuration not stated) | 1.03 | 0.993
Cc1ccc(-c2nc(NC(=O)CSc3nnc4ccccn34)ns2)cc1 | 0.828 | -2.21
NC1CCCc2c1[nH]c1ccc(Br)cc21 (configuration not stated) | 1.03 | 0.289
O=C(Nc1nonc1-c1nc2ccccc2[nH]1)c1ccccc1Cl | 1.09 | 1.74
O=C1C2C(C(=O)N1c1ccc(Cl)cc1)C1C=CC2C12CC2 (configuration not stated) | 0.967 | -0.427
COc1cc(OC)c(NC(=O)CNC(=O)Cn2cnc3sc(C)c(C)c3c2=O)cc1Cl | 0.886 | -1.63
Cc1ccc(Cn2c(=O)n(CCCC(=O)NCc3ccccc3)c(=O)c3sccc32)cc1 | 0.978 | -0.477
Cc1nc2cc(C(=O)O)ccc2n1-c1ccc(F)c(F)c1 | 1.12 | 1.15
Nc1nonc1-c1noc(-c2cccc(Br)c2)n1 | 1.04 | 1.08
CCCN(CCC)S(=O)(=O)c1ccc(C(=O)Nc2nnc(C3CC3)o2)cc1 | 0.528 | -4.54
O=c1[nH]c2ccc(Br)cc2c(-c2ccccc2)c1CNS(=O)(=O)c1ccccc1 | 1.02 | 1.02
O=C(O)c1ccc(Nc2nc(-c3ccc(Cl)cc3Cl)nc3ccccc23)cc1 | 1.32 | 4.02
CCN(CC)S(=O)(=O)c1ccc2c(c1)N(CC(=O)N1CCCC1)C(=O)CS2 | 1.04 | 1.35
CCOc1ccc(-c2cc(CCCC(=O)NCc3ccccc3Cl)no2)cc1 | 1.02 | 0.448
CCOc1ccc(-c2cn(-c3cccc(Cl)c3)c(=O)[nH]2)cc1 | 1.02 | 0.432
Cc1ccc2cc(CCNC(=O)CCCc3ccccc3)c(=O)[nH]c2c1C | 1.06 | 0.399
CCOC(=O)c1ccc(NC(=O)c2cccc3c2C(=O)N(Cc2cccnc2)C3)cc1 | 0.94 | -0.498
CC1c2nc3ccccc3n2C(CC(=O)Nc2cccc(Cl)c2)C(=O)N1Cc1ccccc1 (configuration not stated) | 1.03 | 1.24
CC(C)(C)c1ccc(C(=O)Nc2nnc(COc3ccccc3)s2)cc1 | 1.02 | 0.634
Cc1nc2nc(C)c(CCC(=O)Nc3ccc(Br)cc3)c(C)n2n1 | 0.956 | -0.192
COC(=O)c1ccccc1NC(=O)Cn1ccnc1 | 0.999 | -0.00392
CCOc1ccc(Nc2nc3ccccc3nc2NS(=O)(=O)c2ccc(Br)cc2)cc1 | 0.621 | -10.9
Cc1ccc(C)c(NC(=O)C2CCCN(c3nnc(-n4cccc4)s3)C2)c1 (configuration not stated) | 0.994 | -0.2
CCOc1ccc2nc(N3CCCC(C(=O)N4CCN(CC)CC4)C3)sc2c1 (configuration not stated) | 0.434* | -10.6*
CCOc1ccc(Sc2cc(C(=O)NCc3ccccn3)c3ccccc3n2)cc1 | 1.01 | 0.394
O=C1CC(c2cccs2)c2cc3c(cc2N1)OCO3 (configuration not stated) | 0.843 | -0.176
O=C1CCc2cc(S(=O)(=O)N3CCN(c4ccc(F)cc4)CC3)ccc2N1 | 0.998 | -0.0468

Single records, as listed above. Order of screens: CBX7 AlphaScr	CBX7 AlphaScr z-score
Profile of Cc1nc2nc(C)c(CCC(=O)Nc3ccc(Br)cc3)c(C)n2n1 = 0.956	-0.192
Profile of O=C(Nc1nonc1-c1nc2ccccc2[nH]1)c1ccccc1Cl = 1.09	1.74
Profile of O=C1CCc2cc(S(=O)(=O)N3CCN(c4ccc(F)cc4)CC3)ccc2N1 = 0.998	-0.0468
Profile of Cc1ccc2cc(CCNC(=O)CCCc3ccccc3)c(=O)[nH]c2c1C = 1.06	0.399
Profile of CCN1CCN(CCCNC(=O)C2CCCN(c3nn4c(=O)cc(C)nc4s3)C2)CC1 (configuration not stated) = 0.655	-2.63

Assay outcomes from PubChem BioAssay.

An excerpt; the hit share may differ from the screen's.
